High-throughput results: PubChem BioAssay, National Center for Advancing Translational Sciences (NCATS)
D2 ag – Beta-Arrestin HTS for Positive Allosteric Modulators of the Human D2 Dopamine Receptor: Agonists; activation, % (concentration not given with the values); D(2) dopamine receptor (Homo sapiens), P14416; AID 624465, 2012; hit rate 0.084% among 360,000; DiscoveRx PathHunter D2 beta-arrestin, luminescence, 90 min; 100% = 57 uM dopamine signal; in the data active = activation above about 40%; inconclusive = about 15% to 40%; inactive = below about 15%; further: compound concentration not given in the record; the text of the record calls up to 30% inactive
Target sequence (P14416 whole entry, looked up): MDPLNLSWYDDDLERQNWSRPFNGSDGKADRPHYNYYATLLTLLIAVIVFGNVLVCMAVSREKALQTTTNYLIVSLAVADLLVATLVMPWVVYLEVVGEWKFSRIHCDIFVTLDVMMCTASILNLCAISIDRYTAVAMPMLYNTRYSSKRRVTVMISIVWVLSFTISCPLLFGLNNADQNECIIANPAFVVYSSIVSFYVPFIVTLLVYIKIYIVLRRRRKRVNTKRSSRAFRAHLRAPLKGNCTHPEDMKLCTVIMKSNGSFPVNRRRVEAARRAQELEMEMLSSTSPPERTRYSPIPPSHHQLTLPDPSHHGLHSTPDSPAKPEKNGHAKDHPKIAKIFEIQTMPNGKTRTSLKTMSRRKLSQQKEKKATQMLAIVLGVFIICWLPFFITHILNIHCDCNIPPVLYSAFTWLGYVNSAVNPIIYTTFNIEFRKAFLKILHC
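Agonist mode: compounds alone added to overnight-plated D2 PathHunter cells for 90 min at 37 C, with 57 uM final dopamine (EC100) defining full response. Beta-arrestin recruitment detected by chemiluminescent reagent, read after 1 h at ambient temperature.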
TRPML1 agonist – qHTS for Agonists of the Human Mucolipin Transient Receptor Potential 1 (TRPML1) | Mucolipin-1 (Homo sapiens), Q9GZU1 | TRPML1-expressing cells, Ca2+ dye fluorescence, FDSS; host cell line not named in the record; reference of the full effect not given here | hit rate 0.12% among 410,000 | activation, % (test concentration not listed); in the data active = activation above about 50%; inconclusive = about 30% to 50%; inactive = below about 30%; further: 0% is about no effect; the text of the record puts the active cut at 80%
Target sequence (Q9GZU1 whole entry, looked up): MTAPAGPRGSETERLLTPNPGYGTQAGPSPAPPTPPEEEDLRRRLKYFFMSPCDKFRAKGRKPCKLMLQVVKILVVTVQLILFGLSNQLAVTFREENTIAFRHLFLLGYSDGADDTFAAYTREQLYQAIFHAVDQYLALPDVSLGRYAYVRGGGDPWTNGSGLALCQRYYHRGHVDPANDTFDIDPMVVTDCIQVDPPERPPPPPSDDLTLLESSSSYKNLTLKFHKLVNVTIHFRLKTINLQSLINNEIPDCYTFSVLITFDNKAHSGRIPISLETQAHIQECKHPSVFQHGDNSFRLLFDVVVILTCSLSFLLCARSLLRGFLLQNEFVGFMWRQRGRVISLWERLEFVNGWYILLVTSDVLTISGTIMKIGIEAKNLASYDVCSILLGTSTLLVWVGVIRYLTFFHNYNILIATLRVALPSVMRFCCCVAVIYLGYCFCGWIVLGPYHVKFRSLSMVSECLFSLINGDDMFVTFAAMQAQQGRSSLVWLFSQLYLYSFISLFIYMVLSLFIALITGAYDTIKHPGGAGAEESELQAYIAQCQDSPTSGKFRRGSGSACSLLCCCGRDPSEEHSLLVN
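Calcium fluorescence on an FDSS kinetic reader gave the read-out. Tet-induced TRPML1-DL cells were plated overnight, dye-loaded (Ca8 with quencher, 45-90 min, room temperature, dark), then read 110 s after compound addition, and again 110 s after 4uM final 54-4 (EC80).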
D2 potentiator – Beta-Arrestin HTS for Positive Allosteric Modulators of the Human D2 Dopamine Receptor: Potentiators | D(2) dopamine receptor (Homo sapiens), P14416 | DiscoveRx D2 beta-arrestin cells, luminescence, 90 min; 100% = 57 uM dopamine signal | potentiation, % (test concentration not listed) | hit rate 0.23% among 360,000 | AID 624464, 2012; active = potentiation of 50% or more; inconclusive = 30% to 50%; inactive = 30% or less;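 further: compound concentration not given in the record; tested on top of an EC20 dose of dopamine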
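PathHunter D2 cells, attached overnight at 37 deg C, received compound in DMSO plus dopamine at EC20 (50 nM final) for 90 min at 37 deg C. Beta-arrestin recruitment was read as luminescence after 1 h with detection reagent at ambient temperature.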
CtBP-E1A blk – qHTS Assay for Inhibitors of the CtBP/E1A Interaction; CtBP / adenovirus E1A interaction (AlphaScreen); AlphaScreen GST-E1A/His-CtBP binding, 1536-well; active compounds read low; control for the full effect not named in the record; activity change, % (no concentration beside the values); hit rate 0.49% among 340,000; AID 651724, 2012; in the data active means activity change below about -65%; inconclusive means about -30% to -65%; inactive means above about -30%; further: on the % scale 0 is the no-effect control and ±100 the full control effect
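Homogeneous bead-based format: GST-tagged E1A captured on glutathione donor beads, His-tagged CtBP on nickel acceptor beads; compounds precede bead addition by 2 h at 37 °C.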
Six1-Eya2 inh – qHTS Assay for Inhibitors of the Six1/Eya2 Interaction; AlphaScreen GST-Six1/His-Eya2 binding, biochemical; active compounds read low; control for the full effect not named in the record; hit rate 0.56% among 360,000; activity change, % (no concentration beside the values); Homeobox protein SIX1 (Homo sapiens) + Protein phosphatase EYA2 (Homo sapiens), …; in the data active = activity change below about -65%; inconclusive = about -30% to -65%; inactive = above about -30%; further: on the % scale 0 is the no-effect control and ±100 the full control effect
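AlphaScreen luminescence read after one hour at 37 °C in darkness. Pin-transferred compounds met GST-Six1 and His-Eya2 protein (5X stock 250 nM/500 nM) plus glutathione donor and Ni-chelate acceptor beads (5X, 50 ug/mL).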
PINK1 modulator – A Quantitative High throughput Screen to Identify Chemical Modulators of PINK1 Expression | PINK1 immunofluorescence, high-content cytometry, 24 h | Potency, µM (titrated, usually from 76.6 µM), for the others: at the top dose activation (PINK1 increase), most hits filed as activators | hit rate 0.2% among 410,000 | AID 624263, 2012; active = well fitted activation curve with a large enough effect; inconclusive = small, poorly fitted or top-dose-only effect; inactive = flat fitted curve, though single readings scatter; cell line not stated here;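 further: potency means the concentration at half of the fitted maximal effect; % of control where 0% means no effect; nearly all actives have a fitted effect of over 65% in size; a mitochondrial uncoupler was the plate control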
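PINK1 protein level read as immunofluorescence by microplate cytometer in a fixed, stained stable cell line after 24 h exposure to five compound concentrations, with CCCP as control.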
Numbers without * were called inactive; ? = inconclusive; . = no result given; [ ] = another dose, or the depositor's remark.

no.	SMILES	Six1-Eya2 inh	CtBP-E1A blk	TRPML1 agonist	D2 potentiator	D2 ag	PINK1 modulator
1	CC1CCN(C(=O)Cn2c(=O)n(Cc3ccco3)c(=O)c3sccc32)CC1	-2	10	-0.4	-3	-1.0	1.8%
2	COC(=O)c1c(S(=O)(=O)N2CCOCC2)c(C)n(C)c1C	-13	-13	1.6	-7	-2.7	-1.6%
3	Cc1cc(C)cc(C(=O)N(Cc2ccco2)c2c(N)n(Cc3ccccc3)c(=O)[nH]c2=O)c1	5	3	1.4	1	2.2	1.8%
4	O=C(NNC(=O)c1ccc(O)cc1O)c1ccc(-c2ccccc2)cc1	0	.	.	3	1.5	2.1%
5	C[N+](C)(C)C/C=C1/COCO1	1	3	0.4	11	-0.1	-1.7%
6	CC(=O)NCCC(=O)Nc1cc(S(=O)(=O)N2CCCCC2)ccc1Oc1cccc(C)c1	-1	-1	-0.3	-1	1.6	1.0%
7	COc1ccc(CC(=O)O/N=C(\N)c2ccccn2)cc1OC	-5	-14	-0.9	5	-0.7	-0.3%
8	CCOc1cccc(N2C(=O)CC(N3CCN(c4nc5ccccc5s4)CC3)C2=O)c1 (configuration not stated)	-3	-1	3.8	12	-0.6	2.7%
9	COc1ccc(C(C)NC(=O)c2ccncc2)cc1 (configuration not stated)	15	12	0.4	0	2.2	3.6%
10	c1ccc(CSCc2cn3ccsc3n2)cc1	-5	-2	-1.5	6	-1.7	-1.5%
11	Cc1nn(CC(=O)Nc2ccc3c(c2)nc(CN2CCCCC2)n3C)c(=O)c2ccccc12	-7	-1	-0.8	-5	-2.2	-1.0%
12	CC1CCCCN1CC(O)COCCC12CC3CC(CC(C3)C1)C2 (configuration not stated)	-4	0	1.3	-28	-0.8	0.6%
13	CCOc1ccccc1/C=N/NC(=O)c1cccc(S(=O)(=O)N2CCOCC2)c1	-3	-18	0.4	2	1.1	-1.7%
14	O=C(NNC(=O)c1ccccc1O)c1ccco1	8	7	-0.3	-3	-1.0	0.9%
15	O=C(O)C1CCC(=O)N1C(=O)OCc1ccccc1 (configuration not stated)	4	.	1.0	0	-2.4	-0.7%
16	CCN(CC)CCN(Cc1cc2cc3c(cc2[nH]c1=O)OCCO3)C(=S)NCCCN(C)C	14	.	-0.2	-7	-1.8	-1.4%
17	COc1cccc(CNCCc2c[nH]c3ccccc23)c1OCc1ccc(F)cc1	-21	-22	1.7	-36	-5.4	?
18	N#C/C(C(N)=O)=C1/CCCN1Cc1ccccc1	-3	-1	0.4	-10	2.7	4.2%
19	O=C(CCc1nnc(Cc2c[nH]c3ccccc23)o1)NC1CCCC1	4	4	0.4	-4	-3.3	0.6%
20	COC(=O)c1ccc(C2Nc3ccc(/C(C)=N/NC(=O)C(OC)c4ccccc4)cc3C3C=CCC32)cc1 (configuration not stated)	-12	-20	0.9	17	5.3	0.1%

Laid out differently: entries from further up
Sequence of screens – Six1-Eya2 inh	CtBP-E1A blk	TRPML1 agonist	D2 potentiator	D2 ag	PINK1 modulator
3) Cc1cc(C)cc(C(=O)N(Cc2ccco2)c2c(N)n(Cc3ccccc3)c(=O)[nH]c2=O)c1
 : 5	3	1.4	1	2.2	1.8%
7) COc1ccc(CC(=O)O/N=C(\N)c2ccccn2)cc1OC
 : -5	-14	-0.9	5	-0.7	-0.3%
14) O=C(NNC(=O)c1ccccc1O)c1ccco1
 : 8	7	-0.3	-3	-1.0	0.9%
8) CCOc1cccc(N2C(=O)CC(N3CCN(c4nc5ccccc5s4)CC3)C2=O)c1 (configuration not stated)
 : -3	-1	3.8	12	-0.6	2.7%

Additional compounds
no.	SMILES	Six1-Eya2 inh	CtBP-E1A blk	TRPML1 agonist	D2 potentiator	D2 ag	PINK1 modulator
21	CCN1CCN(C(=O)Cn2c(=O)sc3ccccc32)CC1	3	7	1.5	-2	-2.3	-2.3%
22	Oc1c(CN2CCOCC2)cc(COCc2ccccc2)c2cccnc12	-92*	-88*	-0.2	-47	-17	-0.8%
23	O=C(NC1CCCC1)c1ccccc1OCc1ccccc1	4	-1	0.5	-7	1.0	0.1%
24	O=C(c1ccc(NS(=O)(=O)c2ccccc2)cc1)N1CCCC1	7	4	-0.2	1	-0.2	-0.9%
25	COC(=O)C1=C(C)N(CCc2cc(OC)c(OC)c(OC)c2)C(=O)N[C@H]1c1ccccc1	2	5	-0.7	-1	0.6	0.0%
26	COc1cccc(-c2cnc(C(O)c3ccc(Cl)c(Cl)c3)[nH]2)c1 (configuration not stated)	-19	-17	0.1	-13	-5.9	3.8%
27	COCC(C)NC(=O)Cc1ccc(F)cc1 (configuration not stated)	-10	2	-0.4	-2	0.1	3.6%
28	O=C(CSc1nnc(NC(=O)c2ccccc2)s1)NC1CCCC1	4	6	-0.6	1	-0.7	2.5%
29	Cc1ccc(CNC(=O)CN(C(=O)C2(C)CC(=O)N=C3C=CC=CN32)c2cc(C)ccc2C)cc1 (configuration not stated)	-1	2	-0.4	2	3.1	-0.1%
30	COc1ccc(C(=O)Nc2nnc(C(F)(F)F)s2)cc1	3	5	2.1	-20	-2.5	-2.0%
31	COc1ccc(CCNC(=O)c2cccnc2)cc1	4	3	-0.7	-6	0.2	-5.1%[38.3 µM]
32	Cc1csc(NC(=O)C2CCCN(S(=O)(=O)c3cnc[nH]3)C2)n1 (configuration not stated)	-4	0	-0.4	-7	-5.0	0.8%
33	Cn1c2ccccc2c2nnc(SCC(=O)NCc3ccoc3)nc21	-8	-7	-1.2	-7	-4.0	-0.7%
34	CCOCCCn1c(SCC(=O)Nc2cc(C(C)(C)C)nn2-c2ccccc2)nc2ccccc2c1=O	0	3	1.3	-14	0.3	-1.5%
35	Cc1cc(C)nc(NN2C(=O)/C(=C/c3ccccc3)SC2=S)n1	-1	1	0.0	-14	5.3	10µM*
36	CCC(C(=O)Nc1ccon1)c1ccccc1 (configuration not stated)	7	2	-0.8	6	-1.6	0.4%
37	CN1CC(=O)N(CC(=O)N2N=C(c3ccc(Cl)cc3)CC2c2ccco2)C1=O (configuration not stated)	-16	-2	-1.2	-34	-7.1	-0.4%
38	Cc1c(/C=N/Nc2ccc(F)cc2)c(O)n(C)c(=O)c1C#N	-10	.	-0.1	5	12	-1.1%
39	COc1ccc(C(=O)NC(=S)NCc2ccco2)cc1	1	8	0.0	-3	-4.7	6.0%
40	Cc1ccc(SCCN2CCN(Cc3ccccc3)CC2)cc1	-14	-20	0.1	-5	-6.3	0.1%

no.	SMILES	Six1-Eya2 inh	CtBP-E1A blk	TRPML1 agonist	D2 potentiator	D2 ag	PINK1 modulator
41	N#Cc1ccccc1S(=O)(=O)N1CCN(Cc2cc3c(cc2Br)OCCO3)CC1	-2	0	0.6	-5	-0.6	-0.1%
42	O=C1c2cnc3nc(SCc4ccccc4)nn3c2CC2c3ccccc3CCN12 (configuration not stated)	-12	-28	1.6	-12	-3.9	12%
43	O=C(CNC(=O)c1ccco1)Nc1ccc(S(=O)(=O)N2CCCC2)cc1	-1	1	-1.0	-9	-1.2	0.5%
44	CC(OC(=O)C1=COCCO1)C(=O)Nc1ccc(Oc2ccccc2)cc1 (configuration not stated)	-2	8	-0.6	9	-3.2	-0.5%
45	CCCS(=O)(=O)N1CCC(C(=O)NCc2ccccc2Cl)CC1	11	0	-0.4	-1	-5.3	2.3%
46	CC(=O)c1ccc(N2CCN(C(=O)c3ccccc3SCC(=O)NCc3ccco3)CC2)c(F)c1	1	-7	1.9	0	1.9	0.5%
47	CCc1cc2c(SCC(=O)N(C)C3CCS(=O)(=O)C3)ncnc2s1 (configuration not stated)	3	-1	0.4	-2	-0.7	-0.1%
48	Cc1c(CCC(=O)NCCCC(=O)O)c(=O)oc2cc3oc4c(c3cc12)CCCC4	-19	.	-0.1	-1	-2.1	1.5%
49	Cc1ccc(-c2noc(-c3ccccc3F)n2)cc1	67	39	0.5	-10	-5.6	1.8%
50	CN1CCN(c2ccc(S(=O)(=O)N3CCCCC3)cc2NC(=O)CCc2ccccc2)CC1	0	2	0.2	-2	-7.6	-0.7%
51	CCOc1cc(NC(=S)NCCCN2CCOCC2)c(OCC)cc1NC(=O)c1ccco1	2	0	0.9	-3	-2.3	-1.1%
52	Cc1ccc(CC(NC(=O)c2ccccc2)C(=O)N2CCCC2C(=O)O)cc1 (configuration not stated)	0	1	0.0	1	-2.7	1.4%[38.3 µM]
53	O=C(C1CCN(S(=O)(=O)c2cnc[nH]2)CC1)N1CCN(Cc2ccc3c(c2)OCO3)CC1	4	13	-0.6	-4	-2.1	-1.3%
54	CCCC(=O)Nc1c2c(nn1-c1ccccc1)CSC2	2	.	0.4	-8	-1.5	-0.3%
55	Cc1ccc(C(=O)COC(=O)c2cn3ccccc3n2)cc1	4	3	-0.3	-1	-4.0	1.3%
56	CCC(C)c1ccccc1N1CC(C(=O)NCCC2=CCCCC2)CC1=O (configuration not stated)	-1	-2	0.2	-14	-1.6	2.8%
57	COc1ccc(-n2c(=S)[nH]c3cc(C(=O)Nc4ccc(OC)c(OC)c4)ccc3c2=O)cc1	6	-4	0.2	-9	1.5	3.0%
58	CCOc1ccc(NC(=O)Nc2nnc(CC)s2)cc1	6	9	1.0	-3	-0.8	2.6%
59	CCc1ccc(/C=C2\SC(=S)N(CCC(=O)NCCCN3CCOCC3)C2=O)cc1	0	-9	-0.3	-5	-0.9	2.4%
60	Cc1cc(C)n(-c2ccc(Cl)c(C(=O)Nc3cc(C(F)(F)F)ccc3Cl)n2)n1	1	-1	0.9	-10	-3.1	17%
61	Cc1ccc(CNC(=O)C2CCCN(S(=O)(=O)c3ccc(F)cc3)C2)cc1 (configuration not stated)	11	-4	-0.9	-10	-2.5	3.2%
62	O=C(Cn1ccc(=O)[nH]c1=O)c1ccc([N+](=O)[O-])o1	2	-8	0.5	6	47*	1.4%
